# Bioassay records: PubChem, National Center for Advancing Translational Sciences (NCATS)
# TRPV1 potentiator: HTS Assay for Compounds that Act as Potentiators of the Vanilloid Receptor 1 | TRPV1-expressing cells, Fluo-8 calcium influx, capsaicin EC20 potentiation; host cell line not named in the record; control for the full effect not named in the record | 320,000 tested, 0.02% active | potentiation, % at 8.33 µM; active means potentiation above 80%; inconclusive means 30% to 80%; inactive means below 30%; note: 0% is about no effect
#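 Cells expressing TRPV1 were dye-loaded with Fluo-8 and read kinetically: 10 s baseline, 3 min after compound (agonist portion), then 2 min after EC20 capsaicin (allosteric enhancer portion). Calcium-bound dye fluorescence at 480/520 nm.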
# Six1-Eya2 blk: qHTS Assay for Inhibitors of the Six1/Eya2 Interaction; AlphaScreen GST-Six1/His-Eya2 binding, biochemical; stronger effect = lower value; control for the full effect not named in the record; AID 651725, 2012; 360,000 tested, 0.56% active; activity change, % (no concentration beside the values); Homeobox protein SIX1 (Homo sapiens) + Protein phosphatase EYA2 (Homo sapiens), …; in the data active = activity change below about -65%; inconclusive = about -30% to -65%; inactive = above about -30%; note: % is set by controls: 0 for no effect and ±100 for the full control effect; compound concentration not given in the record
#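 AlphaScreen with GST-Six1 and His-Eya2 (5X mix: 250 nM and 500 nM), glutathione donor and nickel acceptor beads; buffer 50 mM Tris pH 8.0, 300 mM NaCl, 1 mM TCEP; 1 h at 37 C in the dark.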
# TRPML1 agonist: qHTS for Agonists of the Human Mucolipin Transient Receptor Potential 1 (TRPML1); TRPML1-expressing cells, Ca2+ dye fluorescence, FDSS; host cell line not named in the record; reference of the full effect not given here; activation, % (concentration not given with the values); 410,000 tested, 0.12% active; AID 624414, 2012; in the data active = activation above about 50%; inconclusive = about 30% to 50%; inactive = below about 30%; note: 0% is about no effect; the text of the record puts the active cut at 80%
# Target sequence (Q9GZU1 whole entry, looked up): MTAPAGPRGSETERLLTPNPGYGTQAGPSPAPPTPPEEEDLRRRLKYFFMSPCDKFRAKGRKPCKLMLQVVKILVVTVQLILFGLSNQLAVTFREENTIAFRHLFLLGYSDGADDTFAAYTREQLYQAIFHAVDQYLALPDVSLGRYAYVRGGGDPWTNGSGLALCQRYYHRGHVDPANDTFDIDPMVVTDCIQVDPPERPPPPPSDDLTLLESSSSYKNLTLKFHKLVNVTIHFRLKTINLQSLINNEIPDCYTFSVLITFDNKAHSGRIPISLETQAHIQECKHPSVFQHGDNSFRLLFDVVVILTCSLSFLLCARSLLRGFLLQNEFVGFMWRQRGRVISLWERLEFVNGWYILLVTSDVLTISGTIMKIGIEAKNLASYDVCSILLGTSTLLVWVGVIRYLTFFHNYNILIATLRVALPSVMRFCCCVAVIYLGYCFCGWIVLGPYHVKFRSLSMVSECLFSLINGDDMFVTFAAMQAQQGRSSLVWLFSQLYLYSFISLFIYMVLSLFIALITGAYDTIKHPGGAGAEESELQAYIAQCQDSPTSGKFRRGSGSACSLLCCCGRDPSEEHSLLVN
#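 Cells: TRPML1-DL, 1X Tet inducer, ~16 h at 37 degrees C/5% CO2. Dye: ABD Ca8 no-wash + quencher, 45-90 min RT. Read: 10 s baseline, compound add, 110 s agonist phase; 54-4 EC80 (4uM final), 110 s antagonist phase.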
# TRPML1 blocker: qHTS for Inhibitors of the Human Mucolipin Transient Receptor Potential 1 (TRPML1); Mucolipin-1 (Homo sapiens), Q9GZU1; TRPML1-inducible cells, Ca2+ dye fluorescence, FDSS; stronger effect = lower value; inhibition of EC80 agonist-evoked calcium signal; activity change, negative = inhibition, % (test concentration not listed); 390,000 tested, 0.02% active; in the data active means activity change below about -50%; inconclusive means about -30% to -50%; inactive means above about -30%;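 note: stimulus is agonist 54-4 at its EC80 concentration; % is set by controls: 0 for no effect and ±100 for the full control effect; compound concentration not given in the record; the text of the record puts the active cut at -80%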
#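 Calcium fluorescence in TRPML1-DL cells induced overnight with Tet: a 110 s read after compound pin addition, then a 110 s antagonist read after challenge with 54-4 at 4 uM final (EC80).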
# D2 potentiator: Beta-Arrestin HTS for Positive Allosteric Modulators of the Human D2 Dopamine Receptor: Potentiators; D(2) dopamine receptor (Homo sapiens), P14416; DiscoveRx D2 beta-arrestin cells, luminescence, 90 min; 100% = 57 uM dopamine signal; potentiation, % (test concentration not listed); 360,000 tested, 0.23% active; AID 624464, 2012; active = potentiation of 50% or more; inconclusive = 30% to 50%; inactive = 30% or less;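 note: compound concentration not given in the record; tested on top of an EC20 dose of dopamine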
# Target sequence (P14416 whole entry, looked up): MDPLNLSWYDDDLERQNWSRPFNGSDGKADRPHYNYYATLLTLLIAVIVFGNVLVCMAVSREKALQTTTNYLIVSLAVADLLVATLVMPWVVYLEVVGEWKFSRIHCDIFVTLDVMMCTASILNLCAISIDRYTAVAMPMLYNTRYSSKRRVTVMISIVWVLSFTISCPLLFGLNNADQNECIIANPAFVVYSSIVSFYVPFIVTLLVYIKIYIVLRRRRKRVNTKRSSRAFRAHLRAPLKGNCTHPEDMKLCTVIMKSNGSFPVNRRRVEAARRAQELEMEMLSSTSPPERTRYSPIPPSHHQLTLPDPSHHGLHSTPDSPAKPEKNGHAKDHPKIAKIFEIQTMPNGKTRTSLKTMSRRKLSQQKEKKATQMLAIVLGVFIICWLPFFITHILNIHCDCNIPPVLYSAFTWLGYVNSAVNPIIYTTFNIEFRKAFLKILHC
#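 PathHunter beta-arrestin assay in DiscoveRx D2 cells. Compounds were added with an EC20 of dopamine (50 nM final) for 90 min at 37 deg C. Luminescence was read 1 h after detection reagent, with 57 uM dopamine as the EC100 control.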
# CtBP-E1A inh: qHTS Assay for Inhibitors of the CtBP/E1A Interaction; AlphaScreen GST-E1A/His-CtBP binding, 1536-well; stronger effect = lower value; control for the full effect not named in the record; 340,000 tested, 0.49% active; AID 651724, 2012; activity change, % (concentration not given with the values); CtBP / adenovirus E1A interaction (AlphaScreen); in the data active means activity change below about -65%; inconclusive means about -30% to -65%; inactive means above about -30%; note: % is set by controls: 0 for no effect and ±100 for the full control effect
#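 Homogeneous bead-based format: GST-tagged E1A captured on glutathione donor beads, His-tagged CtBP on nickel acceptor beads; compounds precede bead addition by 2 h at 37 °C.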
# * marks the source's active call; other numbers are inactive results; ? = inconclusive; nt = no result given.
(1) CCOC(=O)C1=C(C)NC(=O)NC1/C(C)=C/c1ccccc1 (stereo not drawn)
(2) COc1cc(NC(=O)Cc2cccs2)cc(OC)c1
(3) CCCCOc1ccc(C(=O)NC(=S)Nc2ccc(CN3CCOCC3)cc2)cc1
(4) Fc1ccc(-n2cc(-c3ccccc3)c3c(N4CCOCC4)ncnc32)cc1
(5) Cc1ccc(N(CC(=O)Nc2cc(C)ccc2C)S(C)(=O)=O)cc1
(6) COc1cc(Cl)ccc1NC(=S)N(CCN1CCOCC1)C1CCN(C(C)=O)CC1
(7) CC(C)NC(=S)N1CCN(S(C)(=O)=O)CC1
(8) CCCn1c(C)cc(C(=O)COC(=O)c2cc(S(=O)(=O)NCC(C)C)c(Cl)cc2Cl)c1C

screen / no.	1	2	3	4	5	6	7	8
TRPV1 potentiator	-11.6	-17.1	-0.8	-0.4	-20.8	16.7	27.8	2.7
Six1-Eya2 blk	-0.6	-1.7	7.1	-8.1	16.6	1.2	6.4	-12.6
TRPML1 agonist	-0.2	-1.1	-0.4	0.1	0.4	-0.1	-0.2	-0.3
TRPML1 blocker	4.1	4.1	11.8	-12.0	17.7	-4.2	-1.3	36.0
D2 potentiator	-11.3	-5.5	-2.3	19.8	-6.7	-5.4	-1.4	-9.9
CtBP-E1A inh	3.1	3.3	9.6	-9.4	-8.4	nt	4.7	-8.2

# Next part (three carried over from the part before).
(6) COc1cc(Cl)ccc1NC(=S)N(CCN1CCOCC1)C1CCN(C(C)=O)CC1
(7) CC(C)NC(=S)N1CCN(S(C)(=O)=O)CC1
(8) CCCn1c(C)cc(C(=O)COC(=O)c2cc(S(=O)(=O)NCC(C)C)c(Cl)cc2Cl)c1C
(9) COc1ccc(CN2C(=O)C(C)S/C2=N/N=C/c2ccco2)cc1 (stereo not drawn)
(10) Cc1cccc(OCCCC(=O)N2CCCCCC2)c1C
(11) COc1ccc(C(C)=O)cc1COC(=O)c1ccc(C)c(S(=O)(=O)N2CCOCC2)c1
(12) COc1ccc(Cl)cc1NC(=O)CCN1CCN(C)CC1
(13) CCc1cc(CNC(=O)C2CCC(=O)N(Cc3cccc(F)c3)C2)on1 (stereo not drawn)
(14) COc1cc(NCC(=O)Nc2cccc(S(=O)(=O)N3CCCCC3)c2)cc(OC)c1OC
(15) CCN(CC)c1ccc(N2C(=NC(=O)C3CCCO3)SC3CS(=O)(=O)CC32)cc1 (stereo not drawn)
(16) CC1(C)OC(=O)C(=CNc2ccccc2)C(=O)O1

screen / no.	6	7	8	9	10	11	12	13	14	15	16
TRPV1 potentiator	16.7	27.8	2.7	-6.6	4.4	0.5	4.7	10.2	2.8	8.3	-10.9
Six1-Eya2 blk	1.2	6.4	-12.6	-8.0	2.2	-5.7	-16.2	2.6	-10.4	2.1	1.8
TRPML1 agonist	-0.1	-0.2	-0.3	0.9	-0.5	0.4	0.3	-0.6	-0.4	-0.3	-0.1
TRPML1 blocker	-4.2	-1.3	36.0	-2.0	0.8	25.7	4.2	-8.0	22.5	-3.4	33.8
D2 potentiator	-5.4	-1.4	-9.9	-18.6	-7.9	-16.9	-11.7	-3.2	-3.5	0.2	1.3
CtBP-E1A inh	nt	4.7	-8.2	nt	nt	-1.0	-7.8	8.8	-19.1	0.1	12.3

(17) Cc1nc2sc(C(=O)c3ccccc3)c(N)c2c2c1CCCC2
(18) Cc1ccc[n+](C(C)C(=O)Nc2ccc(C)c([N+](=O)[O-])c2)c1 (stereo not drawn)
(19) CCOC(=O)C(NC(=O)c1ccc(OC)cc1)(N1CCOCC1)C(F)(F)F (stereo not drawn)
(20) COc1cc(NC2CCCCC2O)c2nc(-c3ccc(Cl)cc3)ccc2c1 (stereo not drawn)
(21) CC(=O)Nc1cccc(-c2csc(Nc3ccc(Cl)cn3)n2)c1
(22) COc1cccc(/C=N/Nc2snc(SC)c2C#N)c1
(23) O/N=C/c1cn(-c2ccccc2)nn1
(24) O=c1cc(S(=O)(=O)Cc2ccccc2)[nH]c(=O)[nH]1

screen / no.	17	18	19	20	21	22	23	24
TRPV1 potentiator	-6.4	-3.2	-1.8	?	3.1	6.4	?	nt
Six1-Eya2 blk	-16.9	8.3	5.2	13.3	-10.0	-6.7	-0.6	10.6
TRPML1 agonist	-0.2	0.0	0.3	nt	0.7	0.6	0.1	-0.5
TRPML1 blocker	-3.9	-4.0	-4.7	nt	31.6	49.4	-1.6	-2.8
D2 potentiator	-2.8	-36.0	-5.3	-8.0	-3.4	-3.2	-2.4	-5.1
CtBP-E1A inh	-11.6	3.6	-5.5	3.2	nt	-23.3	11.4	-0.2

# A few values from the list.
# Entry for entry 2 in CtBP-E1A inh: 3.3
# Entry for entry 6 in Six1-Eya2 blk: 1.2
# Entry for entry 12 in TRPML1 blocker: 4.2
# Entry for entry 7 in TRPML1 agonist: -0.2

# Continued:
(25) Cn1ccc2c(-c3cccc4ccccc34)cc3c(c21)C1CCC3O1 (stereo not drawn)
(26) COc1cc(NC(=O)c2ccc3c(c2)OCCO3)ccc1NC(=O)c1ccccc1Cl
(27) Nc1nc2ccc(NC(=O)c3ccco3)cc2s1
(28) CCN(CC(=O)Nc1ccccc1OC)CC(=O)Nc1ccccc1C(F)(F)F
(29) CC1(C)C(c2ccccn2)=[N+]([O-])C(C)(C)N1O
(30) CCCCN(C)C(=O)Cn1cnc2sc(C)cc2c1=O
(31) COc1ccc(NC(=O)CN(C)C(=O)c2ccc(-c3cccc(C(F)(F)F)c3)o2)cc1
(32) CC(=O)NCc1ccc(C(=O)CCl)cc1

screen / no.	25	26	27	28	29	30	31	32
TRPV1 potentiator	nt	-1.8	2.2	-2.7	2.3	6.9	-6.9	1.6
Six1-Eya2 blk	-5.5	-1.9	-15.7	-8.8	0.8	4.3	-5.5	4.4
TRPML1 agonist	-0.3	-0.4	0.5	-1.2	0.6	0.7	0.5	1.8
TRPML1 blocker	nt	-9.5	-7.8	-14.9	-16.7	28.5	3.9	15.0
D2 potentiator	-4.0	14.3	-7.5	-24.2	14.8	-2.5	-30.9	-11.7
CtBP-E1A inh	-22.9	0.0	?	-6.1	3.2	-0.2	-1.0	1.6

(33) Cc1cc2[nH]c(=O)c(=O)[nH]c2cc1S(=O)(=O)Nc1cccc(Cl)c1
(34) CC(C)(C)SC(=O)CC1NS(=O)(=O)OCC1NC(=O)OCC(Cl)(Cl)Cl (stereo not drawn)
(35) COc1ccc(N2CCN(C(=O)COC(=O)[C@@H](NC(=O)c3c(F)cccc3F)C(C)C)CC2)cc1
(36) C/C(=N/NC(=O)C1CCCCC1)c1ccc([N+](=O)[O-])cc1
(37) O=C1CN(C(=O)c2ccccc2[N+](=O)[O-])C(c2ccccc2)c2cc(Br)ccc2N1 (stereo not drawn)
(38) Nc1c(NCc2ccccc2)c(=O)[nH]c(=O)n1Cc1ccccc1
(39) Cc1ccccc1Cn1nc(C)c(NC(=O)c2noc3c2CCc2ccccc2-3)c1C
(40) O=S(=O)(c1ccccc1)N1CCN(Cc2nnc(-c3ccccc3)o2)CC1

screen / no.	33	34	35	36	37	38	39	40
TRPV1 potentiator	4.8	1.0	nt	-16.4	-14.3	-3.0	-2.6	nt
Six1-Eya2 blk	20.6	-3.5	-0.7	-7.7	-2.2	2.7	-16.0	0.3
TRPML1 agonist	0.0	-0.9	4.7	0.4	3.7	0.2	-0.3	-0.9
TRPML1 blocker	12.1	-5.3	-21.6	-0.8	-1.4	0.3	33.3	7.0
D2 potentiator	-0.8	-6.2	-2.7	-5.3	-4.4	-3.0	5.3	-3.8
CtBP-E1A inh	nt	5.9	-3.5	-13.4	nt	6.9	-2.6	4.6

(41) CC(=O)c1ccc(OCc2cc(C(=O)N(C)Cc3ccccn3)no2)cc1
(42) Cc1ccc(N(CCC#N)C(=O)COC(=O)C2CCN(S(=O)(=O)c3ccc(C)c(C)c3)CC2)cc1
(43) COCc1cc(C)nc(SCC[N+](C)(C)CC(=O)c2ccccc2)c1C#N
(44) O=C(NCc1ccccc1)C1(c2ccccc2)CCN(S(=O)(=O)c2ccccc2)CC1
(45) COc1ccc(C(=O)Cn2nnc(-c3ccccc3NC(=O)C3CC3)n2)cc1
(46) Cc1ccc(S(=O)(=O)NCCC(=O)NCc2ccccc2)cc1
(47) CC1CCCCN1CCCNC(=O)C1CCN(c2nnc(-n3cccc3)s2)CC1 (stereo not drawn)
(48) CC1CCCC(NS(=O)(=O)c2cc(Br)cnc2N)C1C (stereo not drawn)

screen / no.	41	42	43	44	45	46	47	48
TRPV1 potentiator	0.2	24.0	8.8	1.3	-0.3	2.2	?	13.3
Six1-Eya2 blk	2.5	-12.0	-1.5	0.0	9.1	4.7	-5.6	6.1
TRPML1 agonist	0.3	-0.3	-0.8	0.0	2.7	-0.2	-0.4	0.9
TRPML1 blocker	-3.7	8.5	6.9	-1.0	5.5	-2.7	9.7	-0.8
D2 potentiator	-7.3	-1.5	-29.0	-14.8	2.7	-1.1	-13.9	-5.4
CtBP-E1A inh	-6.5	0.8	-9.8	5.9	1.9	7.2	-18.7	12.1

(49) Fc1ccc(CCNC(=S)Nc2ccc(F)c(Cl)c2)cc1
(50) O=C(Nc1cccnc1)c1ccccc1O
(51) CCN(CC)CCCN=C(C)C1=C(O)c2ccccc2C1=O
(52) Clc1ccc2nc(-c3ccc(Br)s3)cn2c1
(53) O=C(CSc1nc2ccccc2c(=O)[nH]1)N1CCN(S(=O)(=O)c2ccccc2)CC1
(54) CC(=O)C1=C(O)C(=O)N(CCCO)C1c1ccccc1 (stereo not drawn)
(55) CN(C)S(=O)(=O)c1ccc(C(=O)NCCOc2ccc(F)cc2)cc1
(56) O=C(N=Nc1c(O)[nH]c2ccccc12)c1cc(NS(=O)(=O)c2cccs2)cc(NS(=O)(=O)c2cccs2)c1

screen / no.	49	50	51	52	53	54	55	56
TRPV1 potentiator	-7.2	-24.6	nt	-8.2	-11.7	8.8	-18.0	11.8
Six1-Eya2 blk	-1.7	-0.4	-4.3	-1.9	-2.2	3.4	-0.8	-11.8
TRPML1 agonist	0.1	-0.9	-0.4	0.8	0.5	0.7	-0.6	-0.6
TRPML1 blocker	60.7	5.3	2.6	44.5	-12.5	-14.0	-8.1	-10.2
D2 potentiator	-12.1	-20.5	-14.3	3.6	-6.2	7.4	-5.2	2.1
CtBP-E1A inh	11.6	2.5	16.0	-7.1	3.0	7.8	1.3	1.5

# Part of the list above, reduced to CtBP-E1A inh.
no.	compound	CtBP-E1A inh
55	CN(C)S(=O)(=O)c1ccc(C(=O)NCCOc2ccc(F)cc2)cc1	1.3
56	O=C(N=Nc1c(O)[nH]c2ccccc12)c1cc(NS(=O)(=O)c2cccs2)cc(NS(=O)(=O)c2cccs2)c1	1.5
